# TRPV1 PAM – human TRPV1 potentiation; TRPV1-expressing cells, Fluo-8 calcium influx, capsaicin EC20 potentiation; host cell line not named in the record; control for the full effect not named in the record; potentiation, % at 8.33 µM; actives 0.02% (n = 320,000); active means potentiation above 80%; inconclusive means 30% to 80%; inactive means below 30%; further: 0% is about no effect
#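 Fluo-8 calcium influx in TRPV1-expressing cells, kinetic read (ex 480/em 520 nm). Compound added and read 3 min for agonist activity, followed by capsaicin at EC20 final and 2 min further read for enhancement.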
# D2 PAM – potentiates the human D2 dopamine receptor allosterically. P14416. DiscoveRx D2 beta-arrestin cells, luminescence, 90 min; 100% = 57 uM dopamine signal. potentiation, % (concentration not given with the values). actives 0.23% (n = 360,000); active = potentiation of 50% or more; inconclusive = 30% to 50%; inactive = 30% or less;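 further: compound concentration not given in the record; tested on top of an EC20 dose of dopamine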
# Target sequence (P14416 whole entry, looked up): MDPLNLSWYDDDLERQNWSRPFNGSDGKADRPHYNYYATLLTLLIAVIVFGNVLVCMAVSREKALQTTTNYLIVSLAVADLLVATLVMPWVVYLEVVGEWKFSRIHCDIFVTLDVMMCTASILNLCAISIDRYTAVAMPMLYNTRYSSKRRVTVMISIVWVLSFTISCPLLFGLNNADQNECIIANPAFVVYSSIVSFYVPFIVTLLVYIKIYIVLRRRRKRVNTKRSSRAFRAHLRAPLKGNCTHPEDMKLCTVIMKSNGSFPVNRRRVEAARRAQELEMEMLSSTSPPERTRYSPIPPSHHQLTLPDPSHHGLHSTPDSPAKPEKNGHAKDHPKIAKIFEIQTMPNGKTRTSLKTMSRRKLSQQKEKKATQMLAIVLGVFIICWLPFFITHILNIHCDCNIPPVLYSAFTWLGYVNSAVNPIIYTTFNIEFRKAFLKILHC
#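 PathHunter beta-arrestin assay in DiscoveRx D2 cells. Compounds were added with an EC20 of dopamine (50 nM final) for 90 min at 37 deg C. Luminescence was read 1 h after detection reagent, with 57 uM dopamine as the EC100 control.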
# Menin MLL FP FL – inhibitors of human menin-MLL interaction, wild-type MLL peptide; Fluorescence polarization, fluorescein-MLL peptide displacement from menin; FP activity change, % at 61.4 µM; 290,000 tested, under 10 active; AID 1766; inconclusive = falling polarisation curve, or a change in total fluorescence; inactive = total fluorescence flat and polarisation flat or rising; no compound was filed as active; the % refers to the polarisation; negative = inhibition;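 further: % of control where 0% means no effect; inhibitors lower the polarisation; unlabelled MLL peptide was the positive control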
# Sfp PPTase inh – Sfp phosphopantetheinyl transferase inhibition; Q9F4F7; Biochemical Sfp PPTase activity, qHTS; Potency, µM, for inactives: max response, negative = inhibition, actives largely listed as inhibitors; actives 3.5% (n = 310,000); AID 1490; active means well fitted inhibition curve with a large enough effect; inconclusive means small, poorly fitted or top-dose-only effect, or another doubt; inactive means no such curve, though single readings can be large or run the other way;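 further: the enzyme is Sfp with the accession as filed and its product quenches rhodamine fluorescence; potency means the concentration at half of the fitted maximal effect; 0% = enzyme reaction without inhibitor and -100% = no enzyme wells; top concentration of the series not given in the record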
#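 Fluorescence-quenching assay with 15 nM Sfp, 5 uM rhodamine-CoA and 12.5 uM BHQ-2-labelled ybbR peptide in pH 7.6 Hepes/MgCl2 buffer. Enzyme was pre-incubated with compound for 15 min at room temperature. Rate was taken from the 30-min fluorescence change (525/598 nm).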
# gsp antag – gsp mutant antagonism; gsp-mutant cells, cAMP HTRF, 30 min; control for the full effect not named in the record; Potency, µM (top dose mostly 76.9 µM), for inactives: at the top dose activity change, negative = inhibition, usual class: inhibitors; actives 0.4% (n = 340,000); active = falling curve of any shape with a large fitted effect; inconclusive = falling curve, mostly with a smaller effect; inactive = flat or rising curve; cell line not stated here;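 further: intracellular cAMP measured with PDE inhibitor Ro 20-1724 present during compound exposure; potency means the concentration at half of the fitted maximal effect; on the % scale 0 is the no-effect control and ±100 the full control effect; nearly all actives have a fitted effect of over 65% in size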
#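 HTRF cAMP measurement after 30 min RT detection following 30 min, 37C compound treatment alongside […] (added as 300 uM solution) in G418-selected cells seeded at 2000/well and grown 16–24 h.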
# gsp ag – agonists of gsp mutant (McCune-Albright syndrome) | gsp mutant cells, cAMP HTRF, 30 min; control for the full effect not named in the record | Potency, µM (top dose mostly 76.9 µM), for the others: at the top dose activation (cAMP increase), most hits filed as activators | actives 0.13% (n = 340,000); active = well fitted activation curve with a large enough effect; inconclusive = small, poorly fitted or top-dose-only effect, or another doubt; inactive = no such curve, though single readings can be large or run the other way; cell line not stated here;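 further: phosphodiesterase inhibitor Ro 20-1724 added with compounds to block cAMP breakdown; potency means the concentration at half of the fitted maximal effect; nearly all actives have a fitted effect of over 60% in size; about a fifth of the inactives were tested at one dose only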
#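 Cells in DMEM/10% FBS with G418 were pretreated with compounds in DMSO plus […] (300 uM stock) for 30 min at 37C. cAMP was measured by HTRF (cAMP-d2 plus anti-cAMP antibody-K) after 30 min at room temperature.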
# ClpP mod – qHTS Assay for Activators of ClpP | Potency, µM (top dose mostly 57.5 µM), for the others: at the top dose activity change, negative = active | ATP-dependent Clp protease proteolytic subunit (Bacillus subtilis (strain 168)), P80244 | actives 1.9% (n = 340,000) | purified B. subtilis ClpP, FRET peptide cleavage, 20 min; active = well fitted falling curve with a large enough effect; inconclusive = small, poorly fitted or top-dose-only effect; inactive = no such curve, though single readings can be large or run the other way; further: potency means the concentration at half of the fitted maximal effect; the source files actives as falling curves though it sought activators and does not explain the sign; nearly all actives have a fitted effect of over 65% in size; many hits overshoot -100%
# Target sequence (P80244 whole entry, looked up): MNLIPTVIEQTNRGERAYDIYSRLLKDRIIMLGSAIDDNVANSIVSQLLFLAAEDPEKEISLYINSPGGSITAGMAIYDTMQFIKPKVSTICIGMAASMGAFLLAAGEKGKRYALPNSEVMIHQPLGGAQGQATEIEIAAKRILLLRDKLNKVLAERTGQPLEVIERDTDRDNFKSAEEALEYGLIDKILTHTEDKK
#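 FRET quenching reversal measured ClpP activation: 10 microg/mL B. subtilis ClpP at pH 8 with the FRET-FV decapeptide, read at 430 nm after 320 nm excitation. The 20-min minus 0-min signal was scaled between DMSO/no-enzyme wells and ADEP (5.8 microM final).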
# * = called active by the depositor; ? = inconclusive; . = not tested or not shown; & = joins results of further samples; [ ] = another dose, or the depositor's remark.
SMILES,TRPV1 PAM,D2 PAM,Menin MLL FP FL,Sfp PPTase inh,gsp antag,gsp ag,ClpP mod
CCCN(CC(=O)Nc1ccccc1C)CC(=O)Nc1ccc(Br)cc1F,-13,-6,-1.4,-4%,-3%,?,0.4%
CC(C)c1nnc(SCC(=O)N2CCN(C(=O)c3ccco3)CC2)n1N,-9,-5,-1.8,-15%,7%,-2%,.
Cc1ccc2cc(C#N)c(NCCNC(=S)NCCCN3CCOCC3)nc2c1,-2,-4,2.1,-26%,-6%,?,4.2%
O=C(OCC(=O)N1CCN(C(=O)c2ccco2)CC1)c1ccccc1,0,5,0.6,8%,15%,-10%[15.4 µM],.
CC(C)Cc1nnc(NC(=O)CCC(=O)NC2CCCC2)s1,14,-3,.,11%,-6%,19%,-0.5%
C[C@H](CO)N1C[C@H](C)[C@@H](CN(C)S(=O)(=O)c2ccc3c(c2)OCCCO3)OCc2cn(nn2)CCCC1=O,.,-4,.,.,.,-128%[inhibitor],0.0%
COc1ccc(NC(=O)C(CC(=O)O)Cc2ccc(Br)cc2)cc1 (stereo not given),9,-1,1.8,28%,-2%,-24%,.
COc1ccc(NC(=O)NNC(=O)c2ccc3ccccc3c2)cc1OC,6,-8,.,8%,6%,-15%[15.4 µM],-4.9%
Cc1ccc(NC(=O)CSC2=C(C#N)C(c3ccco3)C3=C(CCCC3=O)N2)cc1 (stereo not given),-2,-13,-7.0,10µM*,-4%,?,-6.9%
CCCCCOC(=O)C1=C(C)Nc2nnnn2C1c1ccccc1Cl (stereo not given),-1,23,-0.1,9%,-36%,-2%,-1.3%
O=S(=O)(Nc1cccc(F)c1)c1cccc2nsnc12,1,1,-8.1,17%,-2%,-51%[inhibitor],-0.7%
COC(=O)[C@]1(C)N[C@H](c2ccc(-c3ccc(Cl)c(Cl)c3)c(OC)c2)[C@@H]2C(=O)N(C)C(=O)[C@@H]21,0,-8,.,.,?,?,3.6%
CCOc1ccccc1CNC(=O)CCc1cn(CC)c2ccccc12,-15,-6,-0.7,-1%,-21%,?,-27%
O=C(CCNc1cccc(Cl)c1)c1cccs1,-14,-19,8.3,1%,-19%,1%,1.8%
O=C(Nc1cccc(F)c1)c1cc(-c2ccco2)nc2ccccc12,.,-15,.,.,9%,17%,-25%
CN(Cc1nc(-c2ccncc2)no1)S(=O)(=O)c1ccc(Cl)cc1,1,-4,-0.2,7%,-33%,-3%,0.9%
COc1cccc(CNC(=O)CCS(=O)(=O)c2ccccc2Cl)c1,4,5,.,.,8%,-19%,2.0%
Nc1c(-c2ccc(Cl)cc2)cnn1-c1cccc(C(F)(F)F)c1,-4,-3,-4.0,14%,-6%,-48%[inhibitor],-3.2%
O=C(O)c1ccc(CNc2ccccc2C(=O)O)cc1,-5,-6,5.5,-8%,13%,0%,32µM*
CN1C2C(Br)CCCCN2c2ccc(F)cc2S1(=O)=O (stereo not given),-4,-9,-13,-3%,-6%,-7%[15.4 µM],.
O=S(CC(O)c1ccccc1)c1ccccc1 (stereo not given),.,-8,.,.,.,3%,0.6%
COc1cccc(-c2c(C(=O)N/N=C(\C)c3ccc(Cl)s3)nnn2-c2nonc2N)c1,-9,2,-2.9,5%,?,2%,155%
O=C(NNS(=O)(=O)c1ccccc1)Nc1ccc(F)cc1,-5,-6,.,-7%,-2%,-2%,1.7%
C/C(=N/NC(=O)CN1CCN(Cc2ccccc2Cl)CC1)c1ccco1,-6,-4,0.4,10%,-2%,-2%,.
CC(=O)Nc1ccc(NC(=O)c2sc3nc4c(c(-c5ccc(C)cc5)c3c2N)CCC4)cc1,-17,-5,1.3,-8%,?,?,25%
CCOc1c(Br)cc(/C=C2\N=C(C)OC2=O)cc1Br,4,0,9.3,8%,0%,-1%,-3.3%
CNCCCOc1cccc(OC(C)C)c1,9,-17,8.6,-16%,6%,18%[15.4 µM],-0.2%
COCc1ccc(C(=O)NC2CC(C)(C)Cc3c2cnn3-c2ccc(C)cc2)o1 (stereo not given),-1,9,.,8%,-12%,-2%,3.5%
NS(=O)(=O)c1ccc(NC(=O)COC(=O)/C=C/c2ccc([N+](=O)[O-])cc2)cc1,10,2,0.1,14%,7%,10%,0.1%
CC(C)C(=O)c1cc2c(cc1NC(=O)c1ccccc1)OCCO2,-3,-9,3.0,-19%,-17%,2%,-30%

# Some entries already given, limited to TRPV1 PAM, D2 PAM and ClpP mod:
smiles,TRPV1 PAM,D2 PAM,ClpP mod
O=S(CC(O)c1ccccc1)c1ccccc1 (stereo not given),.,-8,0.6%
COc1cccc(-c2c(C(=O)N/N=C(\C)c3ccc(Cl)s3)nnn2-c2nonc2N)c1,-9,2,155%

# The listing continues:
SMILES,TRPV1 PAM,D2 PAM,Menin MLL FP FL,Sfp PPTase inh,gsp antag,gsp ag,ClpP mod
CC(C)N(C(=O)Cn1cc(S(=O)(=O)CC(=O)NCc2ccc(F)cc2)c2ccccc21)C(C)C,3,-11,.,8%,-13%,13%[15.4 µM],2.1%
O=C(CCN1CCN(CC(=O)Nc2ccccc2Cl)CC1)Nc1ccccc1F,-13,-17,3.8,2%,-1%,-34%[inhibitor],-3.0%
CCCc1nc2nc(C)c(NS(=O)(=O)c3ccc(F)cc3)c(=O)n2[nH]1,-2,-2,3.8,19%,9%,-3%,-1.1%
COCCn1c(C)nnc1SCC(=O)NNC(=O)c1ccc(Br)cc1,-25,0,-4.0,17%,13%,-20%[15.4 µM],.
COc1cccc2sc(N(CCCN(C)C)C(=O)c3ccc(S(=O)(=O)N4CCc5ccccc5C4)cc3)nc12,2,-33,2.5,-19%,-3%,?,-3.5%
OC(c1ccc(Cl)cc1)C(CN1CCOCC1)c1ccccc1 (stereo not given),-10,-1,-12,-3%,-9%,-15%,.
O=C(COc1ccc(S(=O)(=O)N2CCOCC2)cc1)N1CCN(c2ccccc2)CC1,9,2,0.3,15%,-6%,3%,-4.1%
CN(Cc1cc2ccccc2[nH]c1=O)S(=O)(=O)c1ccccc1,2,-2,-0.5,4%,-9%,-2%,-21%
O=C(c1ccc(S(=O)(=O)NCC2CCCO2)cc1)N1CCN(c2ccccc2F)CC1 (stereo not given),-5,-5,-1.5,20%,4%,-41%[inhibitor],1.0%
O=C(CN(C(=O)c1csnn1)c1ccccc1)NCCc1ccccc1,19,-1,2.6,9%,3%,-43%,.
C=C1CC[C@H](O)C/C1=C/C=C1\CCC[C@]2(C)[C@@H]([C@H](C)/C=C/[C@H](C)C(C)C)CC[C@@H]12,-3,1,.,.,-11%,.,-3.2%
CCOC(=O)c1[nH]c(C)c(C(=O)Nc2ccc3c(c2)CCC3)c1C,-6,-7,-0.8,19%,2%,2%,1.1%
O=C(O)c1cnn(-c2ccccc2)c1C(F)(F)F,-1,-2,1.8,11%,0%,-25%[15.4 µM],.
CCCCCN(C(=O)CCC(=O)OCC(=O)Nc1cccc(CC)c1)c1c(N)n(CCCC)c(=O)[nH]c1=O,-9,0,.,.,2%,-10%,-1.4%
Cc1ccc(S(=O)(=O)N2CCN(CC(=O)NC(=O)NCc3ccccc3)CC2)cc1C,18,2,1.0,-2%,-3%,0%,2.1%
COc1ccc(S(=O)(=O)N(CC(=O)NN=C2CCN(C)CC2)c2cc(Cl)ccc2OC)cc1OC,2,1,-1.9,2%,-7%,25%,.
O=C(COc1ccc(Cl)cc1)NCc1nnc(SCC(=O)Nc2ccccc2)o1,-1,-13,0.1,23%,-10%,7%,1.2%
O=C(C1CCCCC1)N1CCN(c2ncccn2)CC1,3,20,0.3,2%,5%,-7%,-4.6%
O=C(CN1CCN(c2ccc(F)cc2)CC1)Nc1ccccc1[N+](=O)[O-],4,-7,-0.4,-1%,-4%,-5%[15.4 µM],0.3%
O=C(Nc1cccc(Cl)c1N1CCCC1)c1cccc(-c2cc3ccccc3oc2=O)c1,-1,-4,1.7,7%,-7%,4%,-10%
COc1cc2c(cc1OC)CN(CC(=O)Nc1ccc(S(=O)(=O)N3CCCC3)cc1)CC2,-19,-5,.,17%,-11%,29%,-9.1%
COc1cccc2cc(C(=O)Nc3ccc(S(=O)(=O)NCC4CCCO4)cc3)c(=O)oc12 (stereo not given),-3,3,-4.6,-2%,0%,-9%[15.4 µM],.
CN(C)S(=O)(=O)c1ccc(Cl)c(NC(=O)COC(=O)c2ccc3c(c2)NC(=O)CS3)c1,.,-17,7.8,25µM*,-27%,22%,-2.6%
COC(=O)c1nc(NC(=O)C(C)(C)C)n[nH]1,?,-6,1.8,-12%,5%,-63%[inhibitor],0.5%
CCCCOC(=O)c1ccc(NC(=O)C(=O)CC(=O)c2ccc(OC)cc2)cc1,11,-4,0.5,15%,-1%,-14%,.
COc1cccc(NC(=O)c2sc3nc(N4CCOCC4)c4c(c3c2N)CCCC4)c1,11,-12,.,-11%,-1%,?,3.6%
COc1ccc(Cl)cc1NC(=O)C(C)NC(c1ccccc1)c1ccccc1 (stereo not given),2,-4,4.6,6%,-11%,3%,-1.3%
COc1ccc(N(CC(=O)NCc2cccs2)S(=O)(=O)c2ccc(F)cc2)cc1,-5,1,.,.,3%,18%,1.3%
CN=c1sc2ccccc2n1CC(O)COc1ccccc1 (stereo not given),6,-25,1.3,7%,-3%,-14%,-4.2%
Cc1nc(N2CCN(C(=O)c3ccco3)CC2)nc2c1C(=O)CC(C)C2 (stereo not given),-22,-2,-4.6,7%,-18%,12%,-2.2%
CCc1ccc(-c2csc(NC(=O)C3CC(=O)N(c4ccc5c(c4)OCCO5)C3)n2)cc1 (stereo not given),14,8,5.0,-1%,7%,-7%,0.8%
CSCCC1NC(=O)NC1=O (stereo not given),-2,-7,1.3,8%,14%,-2%,0.8%
Cc1oc(-c2ccccc2F)nc1CS(=O)(=O)CC(=O)N1CCN(c2ccccc2)CC1,-8,-9,0.3,9%,-2%,-41%[inhibitor],-3.7%&-1.5%
Cc1ccc(-c2noc(-c3ccccc3Br)n2)cc1,-16,21,-0.8,8%,5%,16%,-1.3%
O=C(NCc1ccccc1Br)c1ccc2c(c1)OCCO2,-7,-4,0.4,11%,6%,-3%[15.4 µM],14%
